S1P4 agonist = activates the human S1P4 receptor | O95977 | S1P4-expressing cell line, agonist reporter assay | AID 1509 | activation, % at 4.98 µM | actives 0.35% (n = 220,000); in the data active = activation above about 11%;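 note: 0% = DMSO vehicle and 100% = reference agonist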
Target sequence (O95977 whole entry, looked up): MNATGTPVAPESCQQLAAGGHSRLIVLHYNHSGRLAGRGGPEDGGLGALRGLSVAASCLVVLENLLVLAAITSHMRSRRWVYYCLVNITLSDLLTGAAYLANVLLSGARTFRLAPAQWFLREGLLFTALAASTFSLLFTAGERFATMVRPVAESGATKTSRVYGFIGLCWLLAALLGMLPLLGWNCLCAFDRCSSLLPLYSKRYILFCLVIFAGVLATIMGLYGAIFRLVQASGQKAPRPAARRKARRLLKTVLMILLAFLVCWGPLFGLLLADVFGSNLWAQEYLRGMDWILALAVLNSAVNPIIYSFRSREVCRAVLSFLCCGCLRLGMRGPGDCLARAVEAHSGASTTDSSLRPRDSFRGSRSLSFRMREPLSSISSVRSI
S1P4 antag = human S1P4 receptor antagonism. AID 1510. inhibition, % at 4.98 µM. actives 0.26% (n = 220,000). S1P4-expressing cells, antagonist mode, reporter read-out; in the data active = inhibition above about 29%;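 note: 0% = wells stimulated with agonist and 100% = vehicle wells without agonist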
PGE2 EP2 inh = inhibitors of human EP2 prostaglandin E2 receptor; P43116; inhibition, % at 25 µM; actives 0.52% (n = 260,000); C6 glioma cells expressing human EP2, cAMP TR-FRET; cells stimulated with saturating PGE2;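 active = percent inhibition above 40 after rounding to a whole number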;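 note: rat C6 glioma host cells with rolipram phosphodiesterase inhibitor present; the protocol text gives 20 µM as final concentration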
Target sequence (P43116 whole entry, looked up): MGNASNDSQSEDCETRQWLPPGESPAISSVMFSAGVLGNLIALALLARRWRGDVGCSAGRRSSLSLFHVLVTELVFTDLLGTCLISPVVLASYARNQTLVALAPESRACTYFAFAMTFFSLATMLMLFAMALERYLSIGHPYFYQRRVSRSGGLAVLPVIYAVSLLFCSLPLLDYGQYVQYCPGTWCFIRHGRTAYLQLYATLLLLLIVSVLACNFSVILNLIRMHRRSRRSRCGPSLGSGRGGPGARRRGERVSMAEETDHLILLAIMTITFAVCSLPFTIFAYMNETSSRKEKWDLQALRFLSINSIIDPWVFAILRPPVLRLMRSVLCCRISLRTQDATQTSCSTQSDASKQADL
p97 ATPase inh = blocks human p97 ATPase activity; P55072; recombinant p97 ATPase, Kinase-Glo ATP luminescence, 3 h; inhibition, % at 8 µM; actives 0.42% (n = 220,000); in the data active = inhibition above about 15%;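 note: 0% = DMSO vehicle and 100% = wells lacking enzyme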
eIF4E 4G PPI = inhibitors of eIF4E and eIF4G interaction in translation initiation | P63073+Q04637 | TR-FRET eIF4E-eIF4GI(517-606) binding, 2 h | inhibition, % at 21.7 µM | actives 0.37% (n = 220,000);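 active = inhibition above about 30%, limit read from the data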;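 note: 0% = full FRET control wells and 100% = background wells lacking eIF4GI fragment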
EP2 mod = modulates human prostaglandin E2 receptor EP2 signaling; P43116; EP2-expressing cells, cAMP HTRF FRET, PGE2 co-stimulation; induction, % at 25 µM; actives 0.83% (n = 260,000); AID 940;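 active = compounds whose cAMP rise, as percent of the full-agonist control response, exceeds 60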;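 note: rat C6 glioma line stably carrying human EP2 under a CMV promoter; the protocol text gives 20 µM as final concentration; 100% = response of wells given 1 µM PGE2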
An asterisk follows results filed as active; . = not tested or not shown; & = joins results of further samples; ! = repeats disagree.

smiles | p97 ATPase inh | EP2 mod | S1P4 agonist | S1P4 antag | PGE2 EP2 inh | eIF4E 4G PPI
CO/N=C(\C(=O)N[C@@H]1C(=O)N2C(C(=O)O)=C(COC(C)=O)CS[C@H]12)c1csc(N)n1 (stereo in doubt) | -1.2 | 23.4&13.5 | 0.0 | -11.5 | 12.1&12.0 | 0.8
CCc1cccc2c3c([nH]c12)C(CC)(CC(=O)O)OCC3 (configuration not stated) | 4.8 | 8.8&3.9&20.0 | 1.1 | -28.5 | 17.7&11.1&13.2 | 1.8
CN1CCN(C2=Nc3cc(Cl)ccc3Nc3ccccc32)CC1 | 5.2 | 22.9&-21.6&0.1 | 1.5 | -11.8 | 12.4&11.6&9.5 | -2.1
COc1ccc2c(c1OC)C(=O)O[C@@H]2[C@H]1c2c(cc3c(c2OC)OCO3)CCN1C | 2.3 | 61.3*! | -4.6 | -8.1 | 10.2&8.5 | 1.6
CCCCc1oc2ccccc2c1C(=O)c1cc(I)c(OCCN(CC)CC)c(I)c1 | 1.1 | 35.2&7.7&23.7 | 2.3 | -7.0 | 13.1&8.8&15.3 | 1.2
O=c1[nH]c(=O)n([C@H]2C[C@H](O)[C@@H](CO)O2)cc1C(F)(F)F | 5.0 | 18.1 | -0.6 | -11.2 | 18.9 | 2.8
CCC(CO)NCCNC(CC)CO (configuration not stated) | 2.0 | -0.8 | -3.6 | -0.8 | 15.7 | 1.4
CCN(CC)C(=O)[C@]1(c2ccccc2)C[C@@H]1CN | 3.7 | . | 1.6 | -6.8 | 19.0 | 0.1
O=C(CCCN1CCC(O)(c2ccc(Cl)cc2)CC1)c1ccc(F)cc1 | -5.8&-0.8 | -32.0&-4.9&-1.7 | -1.0&0.6 | -4.2&15.8 | 21.0&18.2&14.8&13.3 | -0.2&0.6
CC(=O)[C@H]1CCC2C3CCC4=CC(=O)CC[C@]4(C)C3CC[C@@]21C (some centres not stated) | . | 36.3 | . | . | 10.3 | .

Entries above that bear a hit mark in EP2 mod.
Structure,p97 ATPase inh,EP2 mod,S1P4 agonist,S1P4 antag,eIF4E 4G PPI
COc1ccc2c(c1OC)C(=O)O[C@@H]2[C@H]1c2c(cc3c(c2OC)OCO3)CCN1C,2.3,61.3*!,-4.6,-8.1,1.6

Carrying on:
smiles | p97 ATPase inh | EP2 mod | S1P4 agonist | S1P4 antag | PGE2 EP2 inh | eIF4E 4G PPI
CNCC[C@H](Oc1ccc(C(F)(F)F)cc1)c1ccccc1 | . | -17.3 | . | . | 12.2 | .
O=C(N[C@@H](CO)[C@H](O)c1ccc([N+](=O)[O-])cc1)C(Cl)Cl | . | 22.8 | . | . | 8.6 | .
Nc1ncnc2c1ncn2[C@@H]1O[C@H](CO)[C@@H](O)[C@@H]1O | . | 5.1 | . | . | 14.9&9.1 | .
Cn1nnnc1SCC1=C(C(=O)O)N2C(=O)C(NC(=O)C(O)c3ccccc3)C2SC1 (configuration not stated) | . | 2.7 | . | . | 12.0 | .
OC(CCN1CCCC1)(c1ccccc1)C1CCCCC1 (configuration not stated) | 0.2 | -13.7&12.5 | 0.7 | -14.5 | 10.1&14.4 | 2.4
COCCc1ccc(OCC(O)CNC(C)C)cc1 (configuration not stated) | 2.6 | -20.9&15.0&6.1 | 1.1 | -5.3 | 13.4&11.8&7.5 | -3.2
Clc1ccc2c(c1)C(N1CCNCC1)=Nc1ccccc1O2 | 3.4 | 19.8&-18.9&17.0 | -0.9 | -25.5 | 7.7&7.9&10.3 | -2.6
COc1ccc(NS(=O)(=O)c2ccc(N)cc2)nn1 | -2.3 | 8.5&16.8&23.3 | 1.6 | -18.8 | 8.4 | 1.6&0.8
O=C(O)Cc1ccc(-c2ccccc2)cc1 | 3.3 | 36.9 | 2.1 | -13.0 | . | 2.8
CC(C(=O)O)c1cccc(C(=O)c2ccccc2)c1 (configuration not stated) | 3.0 | 12.3&4.5&21.8&12.4 | -0.9 | -14.4 | 13.9&13.3&13.5 | 8.4&-1.9

Some of these compounds in order of the p97 ATPase inh value, smallest number first.
| SMILES | p97 ATPase inh | EP2 mod | S1P4 agonist | S1P4 antag | eIF4E 4G PPI |
| --- | --- | --- | --- | --- | --- |
| COc1ccc(NS(=O)(=O)c2ccc(N)cc2)nn1 | -2.3 | 8.5&16.8&23.3 | 1.6 | -18.8 | 1.6&0.8 |
| OC(CCN1CCCC1)(c1ccccc1)C1CCCCC1 (configuration not stated) | 0.2 | -13.7&12.5 | 0.7 | -14.5 | 2.4 |
| COCCc1ccc(OCC(O)CNC(C)C)cc1 (configuration not stated) | 2.6 | -20.9&15.0&6.1 | 1.1 | -5.3 | -3.2 |
| CC(C(=O)O)c1cccc(C(=O)c2ccccc2)c1 (configuration not stated) | 3.0 | 12.3&4.5&21.8&12.4 | -0.9 | -14.4 | 8.4&-1.9 |
| O=C(O)Cc1ccc(-c2ccccc2)cc1 | 3.3 | 36.9 | 2.1 | -13.0 | 2.8 |
| Clc1ccc2c(c1)C(N1CCNCC1)=Nc1ccccc1O2 | 3.4 | 19.8&-18.9&17.0 | -0.9 | -25.5 | -2.6 |

(continued)
smiles | p97 ATPase inh | EP2 mod | S1P4 agonist | S1P4 antag | PGE2 EP2 inh | eIF4E 4G PPI
Cc1ccnc(NS(=O)(=O)c2ccc(N)cc2)n1 | -1.4 | 0.9&11.9 | -1.6 | -17.8 | 10.5&19.5 | -2.0
CN1CCN2c3ccccc3Cc3ccccc3C2C1 (configuration not stated) | 5.1 | 22.8&10.7&16.8 | -2.1 | -15.9 | 12.1&6.6&11.4 | 0.4
CC(=O)Nc1nnc(S(N)(=O)=O)s1 | -0.3 | 25.1&-24.2&10.9 | 1.5 | 0.4 | 12.1&11.0&10.8 | 2.8
OC[C@@H](O)[C@@H](O[C@@H]1O[C@H](CO)[C@H](O)[C@H](O)[C@H]1O)[C@H](O)[C@@H](O)CO | . | . | . | . | 12.1 | .
CC[C@H](CO)NCCN[C@H](CC)CO | -4.0 | 5.7 | 1.3 | -20.4 | 15.0 | -0.1
CC(C)NCC(O)COc1cccc2[nH]ccc12 (configuration not stated) | 3.3 | 7.9&15.6 | 2.7 | -6.7 | 9.8&13.2 | 1.9
O=C1CC2(CCCC2)CC(=O)N1CCCCN1CCN(c2ncccn2)CC1 | 1.7 | 6.0&1.4 | 2.1 | -5.3 | 8.4&13.6 | 4.0
CC/C(=C(/CC)c1ccc(O)cc1)c1ccc(O)cc1 | -8.0 | -35.5&-92.1 | 0.1 | -11.8 | 19.7&18.7 | 0.3
COc1ccccc1OCC(O)CO (configuration not stated) | 5.9 | 5.2&25.2 | -0.2 | -3.0 | 5.7&14.9 | 0.7
CC1(C)S[C@@H]2[C@H](NC(=O)Cc3ccccc3)C(=O)N2[C@H]1C(=O)O | 7.1 | 5.9&29.6 | 0.9 | -7.0 | 9.8&11.1 | 3.6
O=C(NC(CO)C(O)c1ccc([N+](=O)[O-])cc1)C(Cl)Cl (configuration not stated) | 9.1 | -4.4 | -1.9 | 1.2 | 16.8 | 3.6

In the list so far, 2 have a CF3 group.
smiles | p97 ATPase inh | EP2 mod | S1P4 agonist | S1P4 antag | PGE2 EP2 inh | eIF4E 4G PPI
O=c1[nH]c(=O)n([C@H]2C[C@H](O)[C@@H](CO)O2)cc1C(F)(F)F | 5.0 | 18.1 | -0.6 | -11.2 | 18.9 | 2.8
CNCC[C@H](Oc1ccc(C(F)(F)F)cc1)c1ccccc1 | . | -17.3 | . | . | 12.2 | .

Some of these compounds in order of molecular weight, lowest first:
smiles | p97 ATPase inh | EP2 mod | S1P4 agonist | S1P4 antag | PGE2 EP2 inh | eIF4E 4G PPI
CC(C)NCC(O)COc1cccc2[nH]ccc12 (configuration not stated) | 3.3 | 7.9&15.6 | 2.7 | -6.7 | 9.8&13.2 | 1.9
COCCc1ccc(OCC(O)CNC(C)C)cc1 (configuration not stated) | 2.6 | -20.9&15.0&6.1 | 1.1 | -5.3 | 13.4&11.8&7.5 | -3.2
O=C(CCCN1CCC(O)(c2ccc(Cl)cc2)CC1)c1ccc(F)cc1 | -5.8&-0.8 | -32.0&-4.9&-1.7 | -1.0&0.6 | -4.2&15.8 | 21.0&18.2&14.8&13.3 | -0.2&0.6

From PubChem

An excerpt. The share of hits here may be higher or lower than overall.
